Screening data as filed in PubChem BioAssay.
LANA-H2B inh: blocks KSHV LANA binding to histone H2A/H2B. Q9QR71. cell-free LANA-H2A/H2B peptide, fluorescence polarization. inhibition, % (test concentration not listed). actives 0.6% (n = 320,000). AID 2629; in the data active = inhibition mostly above about 10%, no sharp cut-off; inactive = mostly below about 6.7%;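 note: stock transfer was 7.5 nL into about 10 µL; 0% = median of vehicle wells and 100% = median of positive control wells; one replicate is shown; the record names a cut of 25% in any replicate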
B2AR ag: activates human beta-2 adrenergic receptor causing internalization. response, % (concentration not given with the values). P07550. Am2.2-beta2AR cells, FAP receptor internalization, flow cytometry; reference of the scale not given here. actives 0.43% (n = 340,000);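 active = response above a set limit, near 3 SD of response in nonfluorescent compounds, cut at about 42% in these data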;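 note: stock transfer was 100 nL into about 11 µL; a reference agonist was the positive control; negative values mostly stem from fluorescent compounds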
Target sequence (P07550 whole entry, looked up): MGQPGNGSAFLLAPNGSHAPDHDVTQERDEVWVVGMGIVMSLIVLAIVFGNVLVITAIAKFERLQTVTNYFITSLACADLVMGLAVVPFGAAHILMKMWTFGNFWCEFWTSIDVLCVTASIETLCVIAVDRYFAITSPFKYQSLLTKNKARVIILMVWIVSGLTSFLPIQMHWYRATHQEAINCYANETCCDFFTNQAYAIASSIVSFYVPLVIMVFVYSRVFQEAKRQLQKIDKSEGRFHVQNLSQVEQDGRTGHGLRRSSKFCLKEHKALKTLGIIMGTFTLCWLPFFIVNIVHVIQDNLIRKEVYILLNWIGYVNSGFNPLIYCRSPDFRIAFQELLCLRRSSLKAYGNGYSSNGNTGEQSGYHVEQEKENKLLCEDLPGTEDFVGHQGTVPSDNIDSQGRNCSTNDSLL
Vif A3G: HIV-1 Vif–A3G interaction blockers – biochemical, TR-FRET, GST-Vif 1-94, biotin-A3G peptide, dose response retest, primary screen (AID 1117319); TR-FRET GST-Vif / biotin-A3G peptide binding; higher % means a stronger effect; test concentration not given here; strong numbers were not always called active; one-dose inhibition, %; IC50 in µM for titrated hits; actives 0.57% (n = 260,000);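 active = above the screen mean plus three standard deviations and confirmed in dose response; inconclusive = results disagree or hit not tested in dose response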;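 note: Vif residues 1-94 fused to GST binding biotinylated APOBEC3G peptide 110-148; 0% = full assay without inhibitor and 100% = GST in place of GST-Vif; retest series ran down from 100 µM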
RanGTP-Imp inh: inhibitors of RanGTP-importin-beta interaction, primary screen, biochemical, FRET, CFP-Ran, YFP-importin-beta, homogeneous; inhibition, % (no concentration beside the values); AID 2216; cell-free CFP-Ran/YFP-importin-beta FRET ratio; actives 1.1% (n = 300,000);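 active = most replicates above 15%; inconclusive = exactly half above 15%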;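 note: 0% = DMSO wells and 100% = Ran loaded with GDP instead of GTP; wells of about 40 µL received 100 nL stock; the first replicate is given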
HNF4A DNA FP: change in binding of human HNF4 alpha to DNA; AID 1224865; activity change, % at 10 µM; HNF4a-FITC DNA binding, fluorescence polarization, 1 h; P41235; actives 0.3% (n = 360,000); in the data active = activity change above about 30%, passing the limit was not always enough;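 note: controls were the assay level and a saturating level of protein; the project sought stronger binding though the title names inhibitors; some compounds called inactive have numbers as strong as hits; positive values seem to mean higher polarization but the record does not say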
Target sequence (P41235 whole entry, looked up): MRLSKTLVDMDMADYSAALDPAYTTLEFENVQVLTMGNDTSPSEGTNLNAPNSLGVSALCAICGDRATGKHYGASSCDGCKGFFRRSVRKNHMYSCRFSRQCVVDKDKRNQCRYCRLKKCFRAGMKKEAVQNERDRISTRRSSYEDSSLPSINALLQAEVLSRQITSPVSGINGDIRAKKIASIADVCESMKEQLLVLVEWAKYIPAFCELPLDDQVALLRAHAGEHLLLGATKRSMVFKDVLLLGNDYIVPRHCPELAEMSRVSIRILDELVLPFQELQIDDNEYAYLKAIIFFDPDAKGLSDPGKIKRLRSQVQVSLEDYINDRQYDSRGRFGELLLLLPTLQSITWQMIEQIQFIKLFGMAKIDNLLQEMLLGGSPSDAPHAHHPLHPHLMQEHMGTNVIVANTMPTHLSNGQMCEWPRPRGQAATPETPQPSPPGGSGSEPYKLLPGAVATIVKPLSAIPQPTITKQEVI
Calb FLC: affects C. albicans growth with fluconazole; C. albicans CaCi-2 (fluconazole-resistant clinical isolate) + fluconazole, Alamar Blue growth, 48 h; growth inhibition, % (concentration not given with the values); actives 0.57% (n = 300,000);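 active = most replicates above 75%; inconclusive = exactly half above 75%; inactive = most below 75%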;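 note: all wells also contain fluconazole at 8 µg/ml as a sub-toxic cotreatment; 0% = median of DMSO wells and 100% = median of geldanamycin control wells; wells of about 8 µL received 7.5 nL stock; the first replicate is given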
ALR H2O2 inh: inhibitors of human sulfhydryl oxidase ALR; P55789; purified ALR, DTT oxidation, H2O2 HRP-luminol luminescence; inhibition, % (test concentration not listed); actives 3.8% (n = 290,000);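 active = mean and each replicate at 75% or more; inconclusive = only one of the two met; inactive = neither met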;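 note: stock transfer was 7.5 nL into about 7.5 µL; 0% = neutral wells and 100% = wells with inactivated enzyme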
Target sequence (P55789 whole entry, looked up): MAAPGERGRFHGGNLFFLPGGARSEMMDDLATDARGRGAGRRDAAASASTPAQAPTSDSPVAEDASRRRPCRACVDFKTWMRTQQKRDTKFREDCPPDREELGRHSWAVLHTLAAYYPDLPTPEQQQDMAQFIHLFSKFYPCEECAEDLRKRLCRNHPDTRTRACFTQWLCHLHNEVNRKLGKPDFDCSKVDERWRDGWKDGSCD
Numbers without * were called inactive; ? = inconclusive; . = no result given; & = joins results of further samples. Compounds as they come. About 6.3% of those tested had a hit in this group.

SMILES | LANA-H2B inh | B2AR ag | Vif A3G | RanGTP-Imp inh | HNF4A DNA FP | Calb FLC | ALR H2O2 inh
COc1ccc(CCNC(=O)CCCOc2ccc(Cl)cc2)cc1OC | -6.1 | 5.6 | -1.1% | -2.0 | -0.6 | 0.6 | -11.9
CNC(=S)N1N=C(c2ccc(C)cc2)CC1c1ccc(Cl)cc1 (configuration not stated) | -5.8 | -4.7 | 2.7% | 0.8 | 1.3 | 27.0 | -7.2
O=C(Nc1ccc(Cl)c([N+](=O)[O-])c1)c1ccncc1 | 1.7 | 1.1 | . | 1.1 | -0.7 | ? | .
COc1ccc(S(=O)(=O)Nc2ccc(S(=O)(=O)N(C)C)cc2)cc1[N+](=O)[O-] | 2.4 | 9.1 | . | 3.4 | -0.7 | -1.2 | .
COc1cc(C2C(C#N)=C(N)Oc3n[nH]c(-c4ccncc4)c32)cc(OC)c1OC (configuration not stated) | -2.6 | -14.8 | 0.6% | -3.0 | 1.2 | -0.7 | 23.2
N#C/C(=C/c1ccc(O)c(O)c1)c1nc2ccccc2[nH]1 | -8.3 | -174.8 | . | 38.5* | 9.7 | -3.7 | 89.7*
COc1ccccc1-c1nnc2sc(-c3cc4ccccc4o3)nn12 | -2.3 | -3.0 | -10.4% | 1.4 | -0.9 | 36.4 | -5.4
Cc1ccc(/C=C/C(=O)OCC(=O)NC(=O)NCc2ccco2)cc1 | -1.4 | 7.0 | -1.6% | . | -2.7 | . | -2.2
CCCCc1nc(SCC(=O)N2CCOCC2)c2c(=O)n(C)c(=O)n(C)c2n1 | -3.1 | 6.3 | . | 1.1 | 0.8 | 2.8 | -1.3
O=C1NC(=S)N/C1=C/c1cc([N+](=O)[O-])ccc1O | -1.3 | -3.8 | 0.1% | -11.3 | -2.3 | 7.3 | 40.6
CC(C(=O)OCC(=O)N1CCN(c2ccccc2)CC1)N1C(=O)c2ccccc2C1=O (configuration not stated) | 1.8 | 0.2 | -3.2% | . | 0.9 | . | 12.5
COCc1cc(C)c(C#N)c(=S)[nH]1 | -1.5 | 4.2 | -6.2% | 0.4 | 1.0 | -3.3 | 20.5
COC(OC)C1Nc2ccccc2C(=O)N1c1ccc(F)cc1 (configuration not stated) | . | -9.0 | 5.9% | . | -5.5 | . | .
COc1ccc(CNC(=O)C(c2ccncc2)N(C(=O)Cc2cccs2)c2ccc(C)cc2)cc1 (configuration not stated) | -1.7 | -9.3 | -7.3% | -3.0 | 0.2 | 0.2 | 0.3
O=C(/C=C/c1ccc2ccccc2n1)N1CCN(S(=O)(=O)c2ccc(F)cc2)CC1 | 3.1 | 1.8 | . | 1.4 | 7.2 | 4.7 | -20.0
O=C(Nc1ccc(S(=O)(=O)NCc2ccccc2)cc1)C1CCCCC1 | 7.7 | 2.7 | 0.5% | -1.3 | -2.2 | -0.8 | -15.9
COC(=O)Cn1c(=NC(=O)c2nc3ccccc3s2)sc2cc(S(C)(=O)=O)ccc21 | 4.0 | . | 3.8% | 2.6 | . | 4.3 | .
CCOc1ccc(-n2c(-c3ccc(Cl)cc3)c[n+]3c2SCC3)cc1 | 1.6 | -2.4 | -11.9% | -2.4 | -4.8 | 52.6 | -2.3
O=C1Nc2ccc(S(=O)(=O)NCC3CCCO3)c3cccc1c23 (configuration not stated) | 4.0 | 4.2 | -5.5% | -2.8 | 1.4 | 8.1 | .
COc1ccc(C(=O)c2ccc(CC#N)s2)cc1 | -1.1 | 10.2 | 6.6% | -12.1 | 4.5 | -1.2 | -0.5
C[C@@H]1CCC2[C@](C)(CO)[C@@H](O)CC[C@]2(C)[C@@]12CC[C@@](CO)(CC(=O)O)O2 (some centres not stated) | -2.0 | 0.3 | -1.0% | -0.8 | -0.3 | -12.6 | -0.8
CC[C@H](C)/C=C/C1=CC2=C(Cl)C(=O)[C@@]3(C)OC(=O)C(C(=O)[C@H](C)[C@@H](C)O)=C3C2=CO1 | -2.9 | 4.6 | . | 5.9 | 1.2 | 9.1 | 67.4
CCOC(=O)c1c(Cl)c(C)nn1-c1nc(OC)cc(OC)n1 | 6.3 | 14.8 | 1.8% | -1.5 | -0.4 | 2.8 | -12.9
CC1(C(=O)N(CC(=O)NC2CCCC2)Cc2ccc(Cl)cc2)CC(=O)N=C2C=CC=CN21 (configuration not stated) | 3.3 | 7.0 | . | 5.6 | -2.6 | -6.7 | .
CC(C(=O)N1CCOCC1)c1ccccc1 (configuration not stated) | -0.1 | -0.7 | . | . | -0.7 | . | 0.0

Among those listed so far, these have a nitro group on carbon:
SMILES | LANA-H2B inh | B2AR ag | Vif A3G | RanGTP-Imp inh | HNF4A DNA FP | Calb FLC | ALR H2O2 inh
O=C(Nc1ccc(Cl)c([N+](=O)[O-])c1)c1ccncc1 | 1.7 | 1.1 | . | 1.1 | -0.7 | ? | .
COc1ccc(S(=O)(=O)Nc2ccc(S(=O)(=O)N(C)C)cc2)cc1[N+](=O)[O-] | 2.4 | 9.1 | . | 3.4 | -0.7 | -1.2 | .
O=C1NC(=S)N/C1=C/c1cc([N+](=O)[O-])ccc1O | -1.3 | -3.8 | 0.1% | -11.3 | -2.3 | 7.3 | 40.6

(list continues)
SMILES | LANA-H2B inh | B2AR ag | Vif A3G | RanGTP-Imp inh | HNF4A DNA FP | Calb FLC | ALR H2O2 inh
CCC(=O)c1ccc(OCC(O)CN2CCN(S(=O)(=O)c3ccc(NC(C)=O)cc3)CC2)cc1 (configuration not stated) | 3.5 | 11.8 | . | -2.5 | 6.5 | 5.2 | -2.8
CC1(C)CC(=O)C(C=NCCc2ccc(O)cc2)=C(O)C1 | 0.5 | 1.0 | 3.3% | 4.7 | -0.3 | 8.5 | 96.0*
Cc1cccc(-n2cc(CN3CCN(c4ccccn4)CC3)c(-c3cccc(F)c3)n2)c1 | 2.5 | -28.1 | -7.2% | 3.1 | 1.5 | -7.9 | -19.2
COc1ccc2c(c1)C(=O)CC(c1ccc(OC)c(OC)c1)O2 (configuration not stated) | 0.8 | 10.5 | . | 0.3 | 1.4 | -2.7 | 7.1
O=C(c1ccco1)N1CCN(C(=O)C2CCCN(S(=O)(=O)Cc3ccccc3)C2)CC1 (configuration not stated) | 1.6 | -4.2 | 11.6% | 0.3 | -1.9 | -1.2 | -2.4
NC(=O)CN1C(=O)NC2(CCCc3ccccc32)C1=O (configuration not stated) | 0.6 | -6.9 | . | 2.9 | 1.4 | 31.5 | -0.5
COc1ccccc1N1CCN(CCCCCCOc2ccc(F)cc2)CC1 | 0.6 | -8.9 | 2.5% | ? | -1.1 | -16.4 | -8.2
CCCn1nc(NC(=O)CC)c2cc3cccc(C)c3nc21 | 0.8 | 3.9 | . | 55.1* | 0.9 | 12.3 | -6.8
CCC(C)[C@H](NC(=O)N1CCCC1)C(=O)OC (some centres not stated) | 2.6 | 1.8 | 12.4% | -1.6 | 2.3 | 7.0 | 0.5
O=C(Nc1cc([N+](=O)[O-])ccc1C(=O)NCCN1CCOCC1)c1ccccc1 | -6.4 | -5.5 | 7.5% | ? | 4.4 | 19.7 | -27.5
COc1ccc(NC(=S)NCc2ccc(F)cc2)cc1 | 7.9 | -3.4 | -14.2% | -1.0 | -0.2 | -10.9 | -23.6
O=C(CSc1ccc(-c2cccs2)nn1)c1cccs1 | -2.5 | 1.1 | -48.8% | 2.9 | 3.4 | 19.6 | -1.9
CCOC(=O)c1sc2ncnc(Nc3cccc(C(=O)O)c3)c2c1C | -3.2 | 4.5 | . | 2.4 | -1.8 | -3.5 | -0.9
CCOc1ccc(S(=O)(=O)N/N=C(\C)c2ccc(Cl)c(Cl)c2Cl)cc1 | 6.2 | 4.6 | . | 7.5 | 2.0 | 1.3 | -14.9
O=C(NCC1c2ccccc2CCN1C(=O)CN1C(=O)c2ccccc2C1=O)C1CCCCC1 (configuration not stated) | -2.4 | -16.4 | 3.0% | 5.4 | -2.6 | -5.8 | 62.6
COc1ccc(NC(=O)Cn2nnc(C(=O)NCc3ccco3)c2N)c(OC)c1 | 1.4 | 2.5 | 25.5% | -1.2 | -3.2 | -2.8 | -10.9
COc1nc(N)c(S(=O)(=O)c2ccccc2C)cc1C#N | -3.9 | 2.5 | 4.8% | 5.3 | 5.0 | -0.3 | -4.0
COc1ccc(OC)c(/C=N\Nc2nccs2)c1 | -1.5 | 4.5 | . | -1.5 | 5.8 | -7.4 | 26.2
CC(C)NC(=O)NC(=O)COC(=O)/C=C/c1ccc2c(c1)OCO2 | -1.9 | 11.5 | . | 0.7 | -1.8 | -4.5 | .
CC1=Nc2cc(C(=O)NCCCN3CCN(C)CC3)ccc2Sc2ccc(C)cc21 | 0.5 | 13.0 | . | 0.4 | 2.3 | -7.6 | -5.4
COCc1ccc(CN2CCCC(CO)(Cc3cccc(Cl)c3)C2)o1 (configuration not stated) | -2.1 | 4.9 | -2.2% | 3.6 | -1.2 | -9.5 | -20.0
CCOc1ccc(NC(=S)N2CCC(C(N)=O)CC2)cc1 | 4.7 | 2.7 | -8.2% | 4.1 | -3.2 | 21.0 | 3.0
CCn1c(SC(=O)NC2CCCCC2)nnc1-c1cccs1 | 1.3 | -1.9 | -11.4% | -0.9 | 2.2 | 17.1 | 60.4
COc1ccccc1CNCC(O)(c1ccc(F)cc1)c1ccc(F)cc1 | 2.7 | -4.8 | -5.8% | 5.7 | 0.6 | -7.0 | -2.1
COc1ccc(/C=N/NC(=O)c2ccc(CN3C(=O)c4cccc5cccc3c45)cc2)cc1O | 0.4 | 8.3 | -1.6% | 2.4 | 0.2 | 59.9 | 0.4

Copied from the list:
B2AR ag with CCC(C)[C@H](NC(=O)N1CCCC1)C(=O)OC (some centres not stated) stands at 1.8
LANA-H2B inh with CCOC(=O)c1sc2ncnc(Nc3cccc(C(=O)O)c3)c2c1C stands at -3.2

(cont.)
SMILES | LANA-H2B inh | B2AR ag | Vif A3G | RanGTP-Imp inh | HNF4A DNA FP | Calb FLC | ALR H2O2 inh
COc1ccc(NC(C)=O)cc1S(=O)(=O)NC(Cc1ccccc1)C(=O)NCc1ccccc1C (configuration not stated) | -4.5 | 3.3 | 0.7% | 6.8 | 2.6 | -8.6 | -4.0
Cc1ccc(CN2CCNC(=O)C2CC(=O)NC2CCCCCC2)o1 (configuration not stated) | -4.6 | 1.3 | -3.0% | -0.6 | -1.3 | -25.6 | -8.0
CCOc1cc(C)c(S(=O)(=O)NCCCn2ccnc2)cc1C | 2.4 | -9.1 | . | -4.7 | -0.9 | 7.0 | 5.8
Cc1ccc(-c2nnc(-c3ccccc3)o2)cc1Br | 0.2 | 1.3 | . | 5.0 | -1.3 | 3.1 | -9.1
CN(C)c1ccc(/C=N\NC(=O)c2ccc(Cn3cc(Cl)cn3)cc2)cc1 | 5.7 | -5.9 | -8.4% | ? | 1.7 | -11.6 | 24.1
CC(C)=C(NC(=O)c1ccccc1Br)C(=O)NCCc1nc2ccccc2[nH]1 | 3.8 | -5.0 | -3.9% | -1.7 | 1.4 | 1.6 | -17.8
COc1ccc(OCCSc2nc(-c3ccccc3)cc(=O)[nH]2)cc1 | -2.8 | -4.3 | ? | -0.3 | -0.7 | 38.4 | -9.6
O=C(NCCO)c1cc2ccccc2cc1O | -3.6 | -4.2 | 6.1%&2.2% | 6.7 | -0.2 | 3.0 | 51.9
O=[N+]([O-])c1ccc(N(CC(O)CN2CCCCC2)S(=O)(=O)c2ccccc2)cc1 (configuration not stated) | 3.7 | 7.9 | . | 0.0 | -0.2 | 0.7 | -2.5
Cc1nc2cc(NC(=O)Nc3ccccc3Cl)ccc2n1C | 3.5 | 0.2 | 15.1% | -1.5 | 1.1 | 4.2 | 55.1
Cn1c(=O)c2c(ncn2CC(N)=O)n(C)c1=O | 1.5 | -0.1 | -2.0% | ? | 2.2 | 2.2 | -3.2
